Vaccinia inh = Vaccinia orthopox stage-specific inhibition. Vaccinia-infected cells, mCherry/Venus stage reporter fluorescence; active compounds read low; some inactives read as strong as hits. activity change (mCherry), % (test concentration not listed). hit rate 0.01% among 89,000;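 active means mCherry past -33% and 40 or more points under the early reporter, replicates agreeing; inconclusive means past -33% without that gap or agreement; tested in A549 cells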;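 further: scaled between vehicle wells and reference inhibitor wells; 23 nL library stock went into each well; one replicate is shown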
Vaccinia inh Venus = second read-out of Vaccinia inh, no call of its own (marks repeat the call); activity change (Venus), %; measured here: Venus reporter, other viral stage;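 negative = less Venus signal; first of two replicates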
Numbers without * were called inactive; u = inconclusive; x = not tested or not shown; & = joins results of further samples. This is a subset; rates above refer to the full screens.

Structure	Vaccinia inh Venus	Vaccinia inh
Cc1ccc(-c2cnc3c(c2)C(=O)N([C@H](C)CO)C[C@@H](C)[C@H](CN(C)C(=O)c2cccnc2)O3)cc1	2.7	7.9
COc1ccc(S(=O)(=O)Nc2ccc3c(c2)OC[C@@H](C)N(C)C[C@@H](C)[C@H](OC)CN(C)C3=O)cc1	9.2	4.2
C[C@@H]1CN([C@@H](C)CO)C(=O)c2cc(NS(=O)(=O)c3ccc(Cl)cc3)ccc2O[C@H]1CN(C)C(=O)Nc1ccc(F)cc1	6.4	12.8
COc1cccc(NC(=O)N[C@H]2CC[C@@H](CC(=O)N3CCN(C)CC3)O[C@@H]2CO)c1	4.9	8.4
COc1ccc(NC(=O)N(C)C[C@H]2OCCCC[C@H](C)Oc3ccc(NC(=O)Nc4ccccc4)cc3C(=O)N([C@@H](C)CO)C[C@H]2C)cc1	0.1	2.1
C/C=C/c1ccc([C@H]2[C@@H](CO)N(C(=O)CC)[C@H]2CNC(=O)C2CC2)cc1	-1.4	-4.6
C/C=C/c1ccccc1[C@@H]1[C@@H](C#N)N(C(C)=O)[C@H]1CO	14.0	15.2
CCS(=O)(=O)N1CC(=O)N2[C@H](CO)[C@H](c3ccc(-c4ccc(C)cc4)cc3)[C@@H]2C1	-21.6	-9.9
C[C@H]1CCCCO[C@@H](CN(C)S(=O)(=O)c2ccc(F)cc2)[C@@H](C)CN([C@@H](C)CO)C(=O)c2cc(NC(=O)Nc3cccc4ccccc34)ccc2O1	17.1	9.4
COc1ccc(CN(C)C[C@H]2Oc3ccc(NC(=O)NC4CCCCC4)cc3C(=O)N([C@@H](C)CO)C[C@H]2C)cc1	-9.8	-16.1
C[C@H](CO)N1C[C@H](C)[C@H](CN(C)C(=O)c2ccccc2)OCCCC[C@H](C)Oc2ccc(NC(=O)C3CCCCC3)cc2C1=O	0.7	0.6
Cc1noc(C)c1NC(=O)N(C)C[C@H]1Oc2ccc(NC(=O)Cc3ccccc3)cc2C(=O)N([C@H](C)CO)C[C@@H]1C	-8.8	-1.5
CN1c2ccc(Br)cc2[C@H]2[C@H](CCN2S(=O)(=O)c2ccccc2)[C@H]1CO	-19.3	-14.9
C[C@@H]1CN([C@@H](C)CO)C(=O)c2cc(NS(=O)(=O)c3ccccc3)ccc2O[C@@H](C)CCCCO[C@@H]1CN(C)C(=O)c1ccncc1	10.8	31.6
CNC[C@@H]1OCCCC[C@@H](C)Oc2ccc(NC(=O)C3CCCCC3)cc2C(=O)N([C@H](C)CO)C[C@H]1C	10.2	5.7
C[C@@H]1CN([C@H](C)CO)C(=O)CCCn2nncc2CO[C@@H]1CN(C)S(=O)(=O)c1ccc2ccccc2c1	-14.4&-2.2	-11.4&-1.4

Structural class, those above containing fluorine (2)
Structure	Vaccinia inh Venus	Vaccinia inh
C[C@@H]1CN([C@@H](C)CO)C(=O)c2cc(NS(=O)(=O)c3ccc(Cl)cc3)ccc2O[C@H]1CN(C)C(=O)Nc1ccc(F)cc1	6.4	12.8
C[C@H]1CCCCO[C@@H](CN(C)S(=O)(=O)c2ccc(F)cc2)[C@@H](C)CN([C@@H](C)CO)C(=O)c2cc(NC(=O)Nc3cccc4ccccc34)ccc2O1	17.1	9.4

(further entries)
Structure	Vaccinia inh Venus	Vaccinia inh
COc1ccccc1-c1ccc2c(c1)O[C@H](CN(C)S(=O)(=O)c1ccc(C)cc1)[C@H](C)CN([C@H](C)CO)S2(=O)=O	-21.8	-29.3
CO[C@H]1CC[C@H]2CCN(C)C(=O)CC3(CCCCC3)CN(C)C(=O)c3cc(C#N)ccc3OC[C@H]1O2	-11.3	-9.1
C[C@@H]1CN([C@H](C)CO)S(=O)(=O)c2ccc(-c3cncnc3)cc2O[C@H]1CN(C)C(=O)Cc1cccnc1	20.0	32.0
O=C(Cc1ccncc1)NCC[C@@H]1CC[C@H](NC(=O)Nc2ccc(F)cc2)[C@@H](CO)O1	6.2	4.3
O=C(C[C@@H]1CC[C@@H]2[C@H](COC[C@@H](O)CN2Cc2cc(F)ccc2F)O1)NCc1ccc(Cl)cc1	-25.9	-32.0
COc1ccccc1S(=O)(=O)N[C@@H]1C=C[C@@H](CC(=O)NCc2cccc(F)c2)O[C@@H]1CO	6.9	3.5
Cc1cccc(S(=O)(=O)N2CCCCN3[C@H](C2)[C@@H](c2ccc(C#CC4CC4)cc2)[C@@H]3CO)c1	-12.9	-4.2
CO[C@H]1CN(C)C(=O)c2ccc(NS(=O)(=O)c3ccccc3F)cc2OC[C@H](C)NC[C@@H]1C	4.4	6.1
C[C@@H]1CCCCO[C@@H](CN(C)C(=O)C2CCCCC2)[C@@H](C)CN([C@@H](C)CO)C(=O)c2cc(N(C)C)ccc2O1	6.3	-4.4
O=C(C[C@H]1CC[C@@H]2[C@H](COC[C@@H](O)CN2Cc2ccc(C(F)(F)F)cc2)O1)NCCc1ccccc1	x	u
C[C@@H]1CN([C@H](C)CO)C(=O)c2cc(NC(=O)C3CCCCC3)ccc2O[C@H]1CN(C)C(=O)Nc1cccc2ccccc12	14.6	7.2
CC(C)N(C[C@@H]1N[C@H](CO)[C@@H]1c1ccccc1)C(=O)c1ccccc1	10.3	5.8
COc1cccc(S(=O)(=O)Nc2ccc3c(c2)[C@@H]2C[C@H](CC(=O)N(C)C)O[C@H](CO)[C@@H]2O3)c1	1.1	5.9
C[C@H]1CCCCO[C@@H](CN(C)Cc2ccccc2)[C@@H](C)CN([C@@H](C)CO)C(=O)c2cc(NS(=O)(=O)c3ccc(F)cc3)ccc2O1	x	u
C[C@@H]1CN([C@H](C)CO)C(=O)Cc2cc(NC(=O)c3ccncc3)ccc2O[C@H]1CN(C)S(C)(=O)=O	2.2	1.0
CCCNC(=O)N1[C@H](CO)[C@H](c2ccccc2-c2ccc(C)cc2)[C@@H]1C#N	7.0	6.4
Cc1ccc(S(=O)(=O)N(C)C[C@@H]2Oc3ccc(NC(=O)Nc4ccc(F)cc4)cc3C(=O)N([C@@H](C)CO)C[C@H]2C)cc1	-9.9	-18.4
Cn1cnc(S(=O)(=O)N[C@@H]2C=C[C@H](CC(=O)N3CCN(c4ccccc4)CC3)O[C@@H]2CO)c1	18.7	13.3
C[C@@H]1CN([C@@H](C)CO)C(=O)c2cc(C#Cc3cccnc3)cnc2O[C@H]1CN(C)S(C)(=O)=O	6.3	8.3
C/C=C/c1ccc2c(c1)O[C@H](CN(C)C(=O)C1CCOCC1)[C@H](C)CN([C@@H](C)CO)S2(=O)=O	6.0	3.0
CN(C)C(=O)[C@H]1[C@H](CO)[C@H]2Cn3c(ccc(-c4ccc(F)cc4)c3=O)[C@@H]1N2CCc1ccccc1	9.2	2.2
C/C=C/c1ccc([C@H]2[C@@H](CN(C)C(=O)CC)N(C(=O)NCCC)[C@H]2CO)cc1	5.3	10.4
COc1ccc(NC(=O)Nc2ccc3c(c2)C(=O)N([C@H](C)CO)C[C@@H](C)[C@@H](CN(C)Cc2ccncc2)OCCCC[C@H](C)O3)cc1	11.4	34.3
CCC(=O)N1CC2(C1)CN(S(C)(=O)=O)[C@H](CO)c1[nH]c3cc(OC)ccc3c12	-2.7	0.4

Brought forward from above: five entries, followed by the next part.
Structure	Vaccinia inh Venus	Vaccinia inh
C/C=C/c1ccc2c(c1)O[C@H](CN(C)C(=O)C1CCOCC1)[C@H](C)CN([C@@H](C)CO)S2(=O)=O	6.0	3.0
CN(C)C(=O)[C@H]1[C@H](CO)[C@H]2Cn3c(ccc(-c4ccc(F)cc4)c3=O)[C@@H]1N2CCc1ccccc1	9.2	2.2
C/C=C/c1ccc([C@H]2[C@@H](CN(C)C(=O)CC)N(C(=O)NCCC)[C@H]2CO)cc1	5.3	10.4
COc1ccc(NC(=O)Nc2ccc3c(c2)C(=O)N([C@H](C)CO)C[C@@H](C)[C@@H](CN(C)Cc2ccncc2)OCCCC[C@H](C)O3)cc1	11.4	34.3
CCC(=O)N1CC2(C1)CN(S(C)(=O)=O)[C@H](CO)c1[nH]c3cc(OC)ccc3c12	-2.7	0.4
O=C(NCC[C@H]1CC[C@H](NS(=O)(=O)c2cccc(F)c2)[C@@H](CO)O1)C1CCCC1	0.9	-1.6
COCC#Cc1ccc([C@@H]2[C@@H](CO)N3CCCCN(C(=O)COC)C[C@@H]23)cc1	25.9	30.5
C[C@@H]1CN([C@@H](C)CO)C(=O)c2cc(C#CC3CC3)cnc2O[C@H]1CN(C)C(=O)Nc1ccccc1	-4.8	5.3
Cc1noc(C)c1S(=O)(=O)N(C)C[C@H]1OCCCC[C@@H](C)Oc2ccc(NC(=O)NC(C)C)cc2C(=O)N([C@@H](C)CO)C[C@@H]1C	1.0	2.2
C[C@@H]1CN([C@H](C)CO)C(=O)c2cc(NS(=O)(=O)c3cn(C)cn3)ccc2O[C@H]1CN(C)S(=O)(=O)c1ccccc1	0.0	11.8
CC=Cc1ccc2n(c1=O)C[C@H]1[C@H](CO)[C@@H](C(=O)NCCC)[C@@H]2N1CC1CCCC1 (mixture of isomers)	4.8	-3.1
CN(C)C(=O)c1ccc(-c2ccc3c(c2)[C@H]2[C@H](CCN2S(=O)(=O)c2cn(C)cn2)[C@H](CO)N3)cc1	3.9	-0.1
C[C@H]1CN([C@@H](C)CO)C(=O)c2c(c3ccccc3n2C)-c2ccccc2CO[C@H]1CN(C)C(=O)c1cc(Cl)cc(Cl)c1	x	u
C[C@@H]1CN([C@H](C)CO)C(=O)c2c(c3ccccc3n2C)-c2ccccc2CO[C@@H]1CN(C)Cc1ccc(-c2ccccc2)cc1	-6.3	-22.1
Cc1ccccc1-c1ccccc1[C@@H]1[C@@H](C#N)N(C(=O)c2ccc(F)cc2)[C@H]1CO	2.6	8.4
O=C(Nc1ccc(F)cc1)N1CCCCN2[C@H](CO)[C@H](c3ccc(C#CC4CC4)cc3)[C@H]2C1	x	u
COc1ccc2c3c(n(C)c2c1)[C@H](CO)N(S(C)(=O)=O)CC31CN(C(=O)C2CCCC2)C1	8.0	15.7
C[C@@H]1CN([C@@H](C)CO)C(=O)c2cc(-c3ccccc3F)cnc2O[C@H]1CN(C)C(=O)CN(C)C	7.0	26.9
Cc1ccc(S(=O)(=O)Nc2ccc3c(c2)C(=O)N([C@H](C)CO)C[C@@H](C)[C@@H](CN(C)C(=O)NC(C)C)O3)cc1	14.9	26.0
CC(C)NC(=O)N(C)C[C@@H]1Oc2c(NC(=O)Nc3ccc(F)cc3)cccc2C(=O)N([C@H](C)CO)C[C@@H]1C	-7.2	-11.3
C[C@H](CO)N1C[C@H](C)[C@H](CN(C)Cc2ccccc2)Oc2ncc(-c3cccc(C#N)c3)cc2C1=O	1.6	3.6
COc1ccc(S(=O)(=O)N(C)C[C@H]2Oc3c(NC(=O)c4cc(C)nn4C)cccc3C(=O)N([C@H](C)CO)C[C@H]2C)cc1	6.6	0.6
CC(=O)N(C)C[C@H]1Oc2cc(-c3ccncc3)ccc2S(=O)(=O)N([C@@H](C)CO)C[C@H]1C	11.4	23.1
C[C@@H]1CN([C@H](C)CO)C(=O)Cc2cc(NC(=O)CCN3CCOCC3)ccc2O[C@H]1CN(C)Cc1ccc(-c2ccccc2)cc1	-3.0	-9.7
N#Cc1ccc(-c2ccc3c(c2)[C@@H]2[C@@H](CCN2C(=O)c2ccc4c(c2)OCO4)[C@@H](CO)N3)cc1	6.1	-3.0
C/C=C/c1ccc([C@H]2[C@@H](CO)N3CCCCN(C(=O)C4CCCC4)C[C@@H]23)cc1	-11.2	-1.7
Cc1ccc(S(=O)(=O)N(C)C[C@@H]2Oc3c(NC(=O)NC(C)C)cccc3C(=O)N([C@H](C)CO)C[C@H]2C)cc1	3.1	14.1
CCC(=O)N(CC1CCC1)C[C@H]1[C@H](c2ccccc2)[C@@H](CO)N1C(C)=O	10.4	18.3
CC(C)CC#Cc1ccc2c(c1)O[C@@H](CN(C)Cc1ccncc1)[C@H](C)CN([C@@H](C)CO)S2(=O)=O	x	u
COCCNC(=O)C[C@H]1CC[C@@H](NC(=O)NC2CCCCC2)[C@H](CO)O1	0.0	-0.4
C[C@H]1CN([C@@H](C)CO)C(=O)c2ccccc2-c2ccccc2CO[C@H]1CN(C)C	5.2	11.6
COc1ccc(CN(C)C[C@H]2Oc3c(NC(=O)C4CC4)cccc3C(=O)N([C@H](C)CO)C[C@@H]2C)cc1	7.9	4.4
CO[C@@H]1CN(C)C(=O)c2cc(NC(=O)c3ccc4c(c3)OCO4)ccc2OC[C@@H](C)NC[C@@H]1C	14.0	21.0
COC(=O)C[C@@H]1CC[C@H](NS(=O)(=O)c2ccc(OC)cc2)[C@@H](CO)O1	-8.7	-11.7
CC(C)NC(=O)N(C)C[C@H]1OCCCC[C@H](C)Oc2ccc(NS(=O)(=O)c3ccc(F)cc3)cc2C(=O)N([C@@H](C)CO)C[C@H]1C	14.5	21.5
CCCNC(=O)N(C)C[C@@H]1Oc2cc(C#CCC(C)C)ccc2S(=O)(=O)N([C@@H](C)CO)C[C@H]1C	-18.0	-22.8
O=C(C[C@@H]1CC[C@H](NC(=O)Nc2ccc3c(c2)OCO3)[C@@H](CO)O1)NCc1ccc(Cl)cc1	12.2	8.0
COc1ccc(S(=O)(=O)N(C)C[C@H]2Oc3ccc(NC(=O)Cn4cnnn4)cc3C(=O)N([C@H](C)CO)C[C@H]2C)cc1	-4.9	-2.5
COc1ccc(CN(C)C[C@H]2Oc3c(NS(=O)(=O)c4ccc(C)cc4)cccc3C(=O)N([C@@H](C)CO)C[C@@H]2C)cc1	-5.3	0.1
COc1ccc(CN(C)C[C@H]2Oc3ccc(NC(=O)Cc4cn(C)c5ccccc45)cc3CC(=O)N([C@@H](C)CO)C[C@@H]2C)cc1	-6.3	-13.5
N#Cc1cccc(-c2ccc3c(c2)[C@@H]2[C@@H](CCN2C(=O)c2ccc4c(c2)OCO4)[C@@H](CO)N3)c1	4.0	2.9

Bioassay records from PubChem BioAssay.
